RGS16-Gao HTS: RGS16-Galphao interaction regulator (human); bead-based flow cytometry RGS16-Galphao binding, fluorescence; actives lie on both sides; AID 1441; binding response (% of control), % at 10 µM; O15492+P09471; 0.38% of 220,000 active;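 active = below 25% or above 175%, edge rows of some plates excepted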;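 note: Galphao activated by GDP with aluminum fluoride before binding; 100% = wells without compound and 0% = beads without RGS; some results beyond the cut were filed as inactive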
HSV replic up: HSV replication enhancement; maximum fold increase; HSV replication augmentation in cells, fold increase; 0.005% of 220,000 active;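 active = peak rise of 1.5-fold or more in the series; tested in PC3 cells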;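 note: first round at 10 µM; read as green reporter fluorescence; hits show the peak of a series up to 25 µM; 1 = signal of infected wells without compound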
PKD1 inh: PKD1 (human) kinase inhibition; PKD1 kinase fluorescence polarization assay; inhibition, %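 (about 10 µM by stock and volumes)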; 0.056% of 200,000 active; AID 797;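 active = inhibition of 50% or more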;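 note: controls were vehicle for no effect and a reference inhibitor for full effect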
Target sequence (Q15139 whole entry, looked up): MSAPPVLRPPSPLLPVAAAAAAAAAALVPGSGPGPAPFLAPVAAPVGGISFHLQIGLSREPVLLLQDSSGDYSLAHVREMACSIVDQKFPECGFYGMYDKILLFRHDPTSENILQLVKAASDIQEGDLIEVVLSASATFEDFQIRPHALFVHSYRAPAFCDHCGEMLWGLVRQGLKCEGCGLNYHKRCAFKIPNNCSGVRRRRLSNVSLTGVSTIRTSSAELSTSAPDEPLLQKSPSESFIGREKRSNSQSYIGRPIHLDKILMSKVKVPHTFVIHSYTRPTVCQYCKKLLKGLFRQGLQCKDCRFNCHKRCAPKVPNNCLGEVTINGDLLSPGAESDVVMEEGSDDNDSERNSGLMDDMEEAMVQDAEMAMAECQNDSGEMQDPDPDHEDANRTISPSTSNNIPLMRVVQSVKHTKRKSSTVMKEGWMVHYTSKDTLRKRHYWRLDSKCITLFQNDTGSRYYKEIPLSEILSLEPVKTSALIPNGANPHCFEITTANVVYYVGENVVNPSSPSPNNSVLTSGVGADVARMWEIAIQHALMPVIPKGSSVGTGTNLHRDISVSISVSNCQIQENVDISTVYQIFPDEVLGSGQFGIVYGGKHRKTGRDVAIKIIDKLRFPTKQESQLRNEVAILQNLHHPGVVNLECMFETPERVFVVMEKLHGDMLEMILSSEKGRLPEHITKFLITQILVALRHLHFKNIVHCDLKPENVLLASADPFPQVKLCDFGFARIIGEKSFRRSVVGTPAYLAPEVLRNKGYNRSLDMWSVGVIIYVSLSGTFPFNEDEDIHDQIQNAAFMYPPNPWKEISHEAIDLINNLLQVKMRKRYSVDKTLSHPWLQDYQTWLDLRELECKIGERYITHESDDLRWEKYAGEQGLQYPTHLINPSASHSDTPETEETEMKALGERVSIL
GALR2 agonist: activates the human galanin receptor 2 | O43603 | GALR2-expressing cells, agonist activation read-out | activation, %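 (tested at 5 µM)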 | 0.48% of 140,000 active | AID 803;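 active = above mean plus 3 SD of all compounds, about 5% in these data, not always enough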;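 note: 0% = vehicle buffer wells and 100% = reference agonist at full effect; tested in CHO reporter cells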
INS promoter inh: TRM-6 insulin promoter activity inhibition | TRM-6 cells (human fetal islet line), insulin promoter-eGFP reporter, imaging; reporter expression induced with tamoxifen | inhibition, % at 2 µM | AID 1273 | 0.9% of 130,000 active;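 active = inhibition above the mean plus 3 SD, with well images judged a real hit on visual review, cut at about 60% in these data, passing the limit was not always enough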
INS promoter inh cell count: further read-out of INS promoter inh, marked with its call; normalized cell count, %; measured here: cell count, toxicity; reference of the scale not given here;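 cells exposed to compound for 48 h; stained nuclei by imaging scaled within each plate; lower means fewer cells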
HSV replic up primary fold: further read-out of HSV replic up, marked with its call; fold increase; compound at 10 µM; measured here: primary screen fold increase 10 uM; tested in PC3 cells;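 GFP signal in the first replicate; 1 = infected wells without compound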
* marks the source's active call; other numbers are inactive results; i = inactive; nt = no result given.

SMILES	RGS16-Gao HTS	GALR2 agonist	PKD1 inh	HSV replic up primary fold	HSV replic up	INS promoter inh	INS promoter inh cell count
Oc1cccc(C=NCc2ccccc2)c1O	89	-2.4	3	1	i	nt	nt
O=C(O)c1ccc(Nc2ncnc3c2cnn3Cc2ccccc2)cc1	111	nt	11	0.92	i	0	128
Cc1ccc(NC(=S)NCC2CCCO2)c(OC(F)F)c1 (stereo unspecified)	91	-1.6	-4	nt	nt	nt	nt
CC(C)OC(=O)CC1C(=O)NCCN1C(=S)NC(=O)CCc1ccccc1 (stereo unspecified)	103	nt	-1	0.87	i	nt	nt
CCc1ccc(NC(=O)C(CC)Sc2nc3cc4c(cc3c(=O)n2Cc2ccco2)OCO4)cc1 (stereo unspecified)	96	-1.6	-10	0.72	i	23	94
CC(=O)Nc1ccc(/C(C)=N/NC(=O)c2ccc(CN3CCOCC3)cc2)cc1	127	nt	-4	0.92	i	nt	nt
Cc1ccccc1NC(=O)CCN1CCN(Cc2ccccc2)CC1	103	-1.5	-13	1.1	i	-2	108
O=C(COC(=O)c1cnccn1)NCCc1ccc(Cl)cc1Cl	102	nt	2	0.94	i	nt	nt
c1ccc(CSc2ccc(-c3cccnc3)nn2)cc1	101	nt	1	0.92	i	0	123
Cc1oc2ccc(OCc3ccc(F)cc3)cc2c1C(=O)O	37	-0.8	1	0.97	i	-3	37
CCC(=O)Nc1ccccc1Oc1ccccc1	99	-2.7	0	1	i	-182	96
CS(=O)(=O)CC(=O)Nc1ccc2nc3n(c(=O)c2c1)CCCCC3	102	nt	nt	1	i	nt	nt

The listing continues:
SMILES	RGS16-Gao HTS	GALR2 agonist	PKD1 inh	HSV replic up primary fold	HSV replic up	INS promoter inh	INS promoter inh cell count
CN=c1scc(C)n1/N=C/c1cc(Br)c(O)c(OC)c1	103	nt	-3	0.95	i	nt	nt
OCCC1CN(Cc2cc(F)ccc2-n2cccn2)CCN1C1CCCC1 (stereo unspecified)	102	nt	nt	1.1	i	nt	nt
CCOC(=O)c1c(C)[nH]c(C)c1C(=O)CN1C(=O)NC(CC(C)C)C1=O (stereo unspecified)	94	-0.2	9	0.99	i	nt	nt
Cc1cc(C)c(S(=O)(=O)c2ccccc2C)c(Cl)n1	104	-0.6	6	1.1	i	-83	81
Cc1ccc(C)c(OCC(O)CN2C(C)CCCC2C)c1 (stereo unspecified)	107	-3.2	-11	0.75	i	-41	92
CS(=O)(=O)N(CC(=O)NCc1ccco1)c1ccccc1Cl	98	-2.0	9	0.92	i	7	81
COc1ccc(OCC(=O)NNC(=O)CCc2ccccc2)cc1	108	nt	-3	1.1	i	nt	nt
CN(C)CCCN(C(=O)C1COc2ccccc2O1)c1nc2ccc(F)cc2s1 (stereo unspecified)	106	nt	-5	0.95	i	12	89
Cc1ccc(S(=O)(=O)NC(=O)Nc2cc(C(C)(C)C)on2)cc1	99	nt	nt	0.99	i	nt	nt
C=CCN1C(=O)C(O)(CC(=O)c2ccco2)c2cc(Br)ccc21 (stereo unspecified)	111	nt	-3	0.96	i	nt	nt
Nc1nc(NCc2ccccc2)nc(Nc2cccc(F)c2)c1[N+](=O)[O-]	94	-1.8	-2	0.82	i	29	93
C=CCn1c(-c2sccc2C)n[nH]c1=S	100	-1.7	-9	1	i	35	187

Further results.
SMILES	RGS16-Gao HTS	GALR2 agonist	PKD1 inh	HSV replic up primary fold	HSV replic up	INS promoter inh	INS promoter inh cell count
CCOC(=O)N1CCN(C(=O)c2ccc3c(=O)n(Cc4ccc(Cl)cc4)c(=S)[nH]c3c2)CC1	53	-0.9	14	nt	nt	-21	102
CCC(=O)N1CCc2cc(S(=O)(=O)CCC(=O)NCc3cccs3)ccc21	103	-0.1	-9	1	i	-17	145
CCCC1=NN2C(=N)/C(=C\c3cc(C)n(Cc4ccccc4)c3C)C(=O)N=C2S1	100	nt	nt	0.99	i	nt	nt
O=[N+]([O-])c1ccc(COc2cccnc2)cc1	99	nt	-2	0.95	i	33	92
COc1cccc(C2/C(=C(\O)c3ccc4c(c3)OCCO4)C(=O)C(=O)N2CCCN(C)C)c1OC (stereo unspecified)	nt	-1.4	2	nt	nt	0	75
CCN1C(=O)C(CC(=O)Nc2ccc(OC)cc2)N(Cc2cccnc2)C1=S (stereo unspecified)	115	0.1	2	1.1	i	-16	77
O=C1C2C3C=CC(C3)C2C(=O)N1CC1CCCO1 (stereo unspecified)	99	-2.7	8	0.89	i	3	124
COc1cccc2cc(C(=O)N3CCN(C/C=C/c4ccccc4)CC3)c(=O)oc12	98	-1.6	-3	0.49	i	60	130
O=[N+]([O-])c1cc(-c2nc3nc4ccccc4nc3n2CCc2ccccc2)cc([N+](=O)[O-])c1	104	-1.7	6	0.96	i	4	55
COc1ccc(N2CCN(/C(=N\S(=O)(=O)c3ccccc3)Nc3nc(C)cc(C)n3)CC2)cc1	100	-0.7	6	0.91	i	33	117
O=S(=O)(NCC1CCCO1)c1ccc(S(=O)(=O)N(Cc2ccc(F)cc2)Cc2ccco2)cc1 (stereo unspecified)	138	-0.9	2	0.99	i	19	93
COCCNC(=O)c1n[nH]c2ccccc12	111	nt	-1	0.82	i	55	81

The last five records of the section before come first, to join the parts.
SMILES	RGS16-Gao HTS	GALR2 agonist	PKD1 inh	HSV replic up primary fold	HSV replic up	INS promoter inh	INS promoter inh cell count
COc1cccc2cc(C(=O)N3CCN(C/C=C/c4ccccc4)CC3)c(=O)oc12	98	-1.6	-3	0.49	i	60	130
O=[N+]([O-])c1cc(-c2nc3nc4ccccc4nc3n2CCc2ccccc2)cc([N+](=O)[O-])c1	104	-1.7	6	0.96	i	4	55
COc1ccc(N2CCN(/C(=N\S(=O)(=O)c3ccccc3)Nc3nc(C)cc(C)n3)CC2)cc1	100	-0.7	6	0.91	i	33	117
O=S(=O)(NCC1CCCO1)c1ccc(S(=O)(=O)N(Cc2ccc(F)cc2)Cc2ccco2)cc1 (stereo unspecified)	138	-0.9	2	0.99	i	19	93
COCCNC(=O)c1n[nH]c2ccccc12	111	nt	-1	0.82	i	55	81
CC1(C)Cc2nc3nc(SCC(=O)NCCc4ccccc4)n(-c4ccccc4)c(=O)c3cc2CO1	104	-0.6	-3	0.88	i	26	87
O=C(N/N=C/c1ccccc1Br)C1CC1	99	nt	-2	0.97	i	nt	nt
Cc1nn(Cc2ccc(F)cc2)c2sc(C(=O)Nc3ccc(N4CCOCC4)cc3N3CCOCC3)cc12	90	1.9	-7	0.82	i	25	98
O=S(=O)(c1ccccc1)c1ccc(NCc2ccco2)cc1	97	-2.0	-10	0.77	i	0	74
N#C/C=C1\n2c(nc3ccccc32)OC12CCCCC2	97	-0.7	0	0.73	i	-14	84
COc1ccc(C(=O)O/N=C(\C)c2ccccc2)cc1	101	-0.2	3	0.78	i	14	144
Cc1nnc(SCC(=O)Nc2ncc3c(n2)CC(C)(C)CC3=O)s1	96	-0.4	1	0.88	i	11	101
O=C(NCCCN1CCOCC1)NC12CC3CC(CC(C3)C1)C2	111	-1.0	-1	0.86	i	0	107
CCN(CCn1cccn1)Cc1ccccc1OCC(O)CN1CCc2ccccc2C1 (stereo unspecified)	100	nt	1	0.88	i	nt	nt
Cn1cccc1C(=O)OCC(=O)Nc1ccc2c(c1)CCC2	104	-0.7	-2	0.86	i	nt	nt
Cc1cc(=O)oc2ccc(OCC(=O)O)cc12	102	-1.5	-1	0.81	i	0	110
COc1ccc(S(=O)(=O)N2CCOC2CNC(=O)C(=O)NCc2ccco2)cc1C (stereo unspecified)	99	nt	nt	0.97	i	nt	nt

Next section.
SMILES	RGS16-Gao HTS	GALR2 agonist	PKD1 inh	HSV replic up primary fold	HSV replic up	INS promoter inh	INS promoter inh cell count
COCCn1c(SCC(=O)c2ccccc2)nc2c(c1=O)SC(C)C2 (stereo unspecified)	98	0.0	-3	0.72	i	68	68
COc1ccc2c(c1)c(=O)oc1cc(OCC(=O)N3CCC(C)CC3)ccc12	100	-0.6	-5	1.2	i	-10	145
CC(=O)Nc1ccc(-c2cc(C(=O)O)c3ccc(C)cc3n2)cc1	101	nt	nt	0.95	i	nt	nt
C=CCN1C(=O)NC(c2ccc(OC)cc2)(C(F)(F)F)S/C1=C(\C#N)c1nnc(N2CCOCC2)n1-c1ccccc1 (stereo unspecified)	108	-0.8	-8	0.85	i	-15	94
O=C(NC1CC1)C1CCCN1S(=O)(=O)c1ccc2ccccc2c1 (stereo unspecified)	102	-1.3	-10	0.78	i	-156	115
COc1ccccc1Nc1nc2ccccc2[nH]1	103	-1.7	-8	0.95	i	-22	55
Cc1cc(C)c(C#N)c(SC2CCCCC2=O)n1 (stereo unspecified)	102	-0.5	-1	1	i	-20	133
CCc1nnc(NC(=O)c2cc(-c3ccccn3)nc3ccccc23)s1	97	nt	0	1.1	i	nt	nt
Cc1cccc(NC(=O)CSc2nc3ccc(NC(=O)CSc4nnnn4-c4ccccc4)cc3s2)c1C	101	-2.9	1	nt	nt	19	98
O=C(Cn1c(=O)c2sccc2n(Cc2cccc([N+](=O)[O-])c2)c1=O)NCCc1ccccc1	106	-0.7	1	1	i	21	95
COc1ccc(C(C2C(=O)CC(C)(C)CC2=O)C2C(=O)CC(C)(C)CC2=O)cc1	93	nt	nt	0.98	i	nt	nt
COC(OC)c1ccc(C#N)c(SCc2ccc(C)cc2)n1	100	nt	nt	1	i	nt	nt

(next part)
SMILES	RGS16-Gao HTS	GALR2 agonist	PKD1 inh	HSV replic up primary fold	HSV replic up	INS promoter inh	INS promoter inh cell count
COc1ccc(OCC(=O)Nn2c(-c3ccc(OC)cc3)nc3ccccc3c2=O)cc1	105	0.6	2	0.89	i	40	115
CCOC(=O)c1c(C)[nH]c(C(=O)COC(=O)CCS(=O)(=O)c2ccc(C)cc2)c1C	107	-0.7	-7	0.91	i	5	110
COc1ccc(C(=O)NCc2nnc(SCC(=O)Nc3nc4ccccc4s3)o2)cc1	78	-0.3	6	0.99	i	40	108
O=S(=O)(CCc1nc2ccccc2s1)c1ccc2ccccc2c1	102	-1.7	-8	0.9	i	-9	84
Cc1cc(C)c2cc(CN(CCCN(C)C)C(=S)NCc3ccccc3)c(=O)[nH]c2c1	104	nt	-2	0.99	i	-61	123
CC1=Nc2ccccc2/C1=C/c1nc(-c2ccc(C)s2)oc1O	94	nt	4	1	i	6	115
CCCCc1nc2cc(Cl)ccc2o1	96	nt	8	0.98	i	nt	nt
COc1cccc2cc(C(=O)Oc3ccc(NC(C)=O)cc3)c(=O)oc12	29	-0.4	-7	1	i	nt	nt
CC1(C)Cc2nc(N3CCOCC3)c(C#N)cc2CO1	105	-1.3	1	0.9	i	38	60
CCOC(=O)N1CCN(c2c(NCCc3ccc(OCC)c(OCC)c3)c(=O)c2=O)CC1	95	-0.4	7	0.74	i	nt	nt
COc1ccc(C(=O)NC(Cc2ccc(OC(=O)c3ccc(OC)cc3)cc2)C(=O)O)cc1 (stereo unspecified)	82	nt	4	0.97	i	40	79
Cc1cc(Cl)ccc1NC(=S)Nc1ccccn1	102	-1.2	1	0.94	i	3	87

The list goes on:
SMILES	RGS16-Gao HTS	GALR2 agonist	PKD1 inh	HSV replic up primary fold	HSV replic up	INS promoter inh	INS promoter inh cell count
CCOC(=O)CN1C(=O)C(O)(CC(=O)c2ccco2)c2ccccc21 (stereo unspecified)	102	-1.0	11	0.95	i	6	115
O=C1NC(=Nc2ccc(F)cc2)CS1	99	nt	-6	1.1	i	-183	20
COc1ccccc1N(CC(=O)Nc1c(C)n(C)n(-c2ccccc2)c1=O)S(=O)(=O)c1ccc(C)cc1	99	nt	6	1	i	nt	nt
CCOc1ccc(C(=O)Nc2nnc(C)s2)cc1OCC	110	0.2	-1	0.77	i	nt	nt
COC(=O)C1=C(N)OC2=C(C(=O)CCC2)C1c1cccnc1 (stereo unspecified)	109	nt	1	1	i	-25	102
Cc1ccc(S(=O)(=O)NCC(=O)N(CC(=O)NCC2CCCO2)C2CCCC2)cc1 (stereo unspecified)	98	-2.9	-16	1.1	i	-61	87
O=C(CN1C(=O)CCS(=O)(=O)c2ccccc21)NCc1ccccc1	81	-0.7	1	1.1	i	-17	123
O=C(CC(c1ccccc1)c1ccccc1O)NCc1ccco1 (stereo unspecified)	101	-1.5	-3	0.99	i	8	97
Cc1occc1-c1nnc(SCC(=O)O)n1-c1ccccc1	98	nt	nt	1.1	i	nt	nt
CC(NC(=O)c1cc(COc2ccc3ncccc3c2)on1)c1ccc(F)cc1 (stereo unspecified)	85	nt	nt	0.81	i	nt	nt
COC(=O)c1ccc(-c2ccco2)n1Cc1cccc(C)c1	101	-0.7	-3	0.92	i	-27	92
Cc1cc(C(=O)NNS(=O)(=O)c2ccc(C(C)(C)C)cc2)nn1C(C)(C)C	98	nt	nt	1	i	nt	nt
CNC(=O)COC(=O)c1[nH]c(C)c(C(C)=O)c1C	108	-1.5	-8	1.2	i	13	106

Screening data deposited in PubChem BioAssay by several laboratories.
